RE007 growth inh: less growth of the S. pombe RE007 Vpr strain; Potency, µM (top dose mostly 92.2 µM), for inactives: at the top dose activity change, negative = less growth; hit rate 0.21% among 360,000; S. pombe RE007 Vpr strain, BacTiter-Glo ATP luminescence, 24 h; control for the full effect not named in the record; active = well fitted falling curve with a large enough effect; inconclusive = small, poorly fitted or top-dose-only effect; inactive = no such curve, though single readings can be large or run the other way;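 further: on the % scale 0 is the no-effect control and ±100 the full control effect; nearly all actives have a fitted effect of over 50% in size; the assay follows cell death caused by Vpr and the record does not say whether a fall means rescue or toxicity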
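Fission yeast RE007 carrying one integrated HIV-1 vpr copy, seeded at OD 0.01 in PMG+AL medium with 23 nL pinned compound. Grown 24 h at 30 degrees; viability read by BacTiter-Glo luminescence after 5 min.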
StopGo reporter: lowers the luciferase signal of an FMDV 2A StopGo reporter | human cells with a luciferase reporter of 2A StopGo recoding; control for the full effect not named in the record | Potency, µM (series often up to 57.9 µM), inactives show top-dose signal change, negative = less light | hit rate 1.2% among 410,000; active = well fitted falling curve with a large enough effect; inconclusive = small, poorly fitted or top-dose-only effect; inactive = no such curve, though single readings can be large or run the other way; tested in HEK293T cells; further: on the % scale 0 is the no-effect control and ±100 the full control effect; nearly all actives have a fitted effect of over 45% in size; luciferase light after 4 h
SARS PLP yeast: SARS-CoV PLP inhibition in yeast | S. cerevisiae expressing SARS-CoV PLpro, growth rescue; control for the full effect not named in the record | Potency, µM (top dose mostly 32.9 µM), without a hit: at the top dose activity, positive = growth rescue | hit rate 0.19% among 330,000 | AID 485353; active means well fitted rising curve with a large enough effect; inconclusive means small, poorly fitted or top-dose-only effect; inactive means no such curve, though single readings can be large or run the other way; further: 0% is about no effect; nearly all actives have a fitted effect of over 55% in size; growth read by luminescence after 48 h
An asterisk follows results filed as active; ? = inconclusive; [ ] = dose if it differs, or a comment. Potency means the concentration at half of the fitted maximal effect. The list is partial. The share of hits here may be higher or lower than overall.

SMILES	RE007 growth inh	StopGo reporter	SARS PLP yeast
O=C(NCc1ccccc1CN1CCCC1)c1cccc(S(=O)(=O)N2CCOCC2)c1	12%	-6%	0%
Cc1cccc(C(=O)OCC(=O)Nc2ccccc2C(=O)NC2CC2)c1	-2%	0%	-4%
CCOc1ccc(NC(=O)C(C)NC(=O)c2ccccc2Cl)cc1S(=O)(=O)N1CCCC1 (stereo not drawn)	2%	16%	-3%
COc1ccc([C@@H]2CC=C(C(=O)O)[C@H](c3ccc(Cl)cc3)N2S(=O)(=O)c2ccccc2C)cc1	1%	-3%	1%
Cc1ccc(SCC(=O)OC(C)C(=O)NC2CCCCC2C)c(C)c1 (stereo not drawn)	-3%	-5%	10%
O=C1N[C@@H](Cc2ccccc2)COC(=O)[C@@H](Cc2ccc(F)cc2)CC/C=C/C[C@@H]1CC(=O)N(CCO)Cc1ccccc1	34%	-16%	-1%
CC(C)(C)c1ccc(C(=O)NCCC(=O)NC2=NCCS2)cc1	4%	-20%	5%
Cc1ccc(S(=O)(=O)NCCc2nnc3ccc(NCCCOC(C)C)nn23)cc1	-8%	0%	3%
COc1ccc(COC(=O)C2CCN(S(=O)(=O)c3ccc(OC)c(OC)c3)CC2)cc1	2%	-25%	12%
O=C(Nc1cccc(S(=O)(=O)N2CCOCC2)c1)C1CC(=O)N(c2ccc3c(c2)OCCO3)C1 (stereo not drawn)	3%	-2%	-12%
COC(=O)c1cn(C)c2ccc(S(=O)(=O)N3CCOCC3)cc2c1=O	9%	-3%	0%
CN(CC(=O)Nc1ccccc1C(=O)NC1CC1)Cc1ccc(N(C)C)cc1	-2%	-11%	-6%
Cc1ccc(NC(=O)Nc2cc(S(=O)(=O)N(C)C)ccc2C)cc1	-3%	33%[activator]	0%
COc1ccccc1C(=O)NCCC(=O)N(C)Cc1cccnc1	-2%	-22%	2%
O=C(C[N+]1(CC#Cc2ccccc2)CCCCC1)c1ccc(Cl)cc1	-9%	-8%	-1%
CC(NS(=O)(=O)c1cccc(C(=O)NCc2ccncc2)c1)c1ccccc1 (stereo not drawn)	-5%	-4%	-2%
O=C(c1cc(C2CC2)nn1-c1ccccc1)N1CCN(Cc2c(F)cccc2Cl)CC1	5%	-17%	4%
C=CCC[C@H](Cc1ccc(F)cc1)C(=O)OC[C@@H](C)NC(=O)[C@@H](CC=C)CC(=O)N[C@H](CO)Cc1ccccc1	1%	?	-1%
C[C@H](CO)N1C[C@H](C)[C@H](CN(C)S(C)(=O)=O)Oc2c(cccc2N(C)C)C1=O	21%	29%	-1%
O=C(COC(=O)CNC(=O)C1CCCCC1)NCc1ccc(Cl)cc1	9%	-3%	-10%

Reprinted at random: five entries already listed.
SMILES	RE007 growth inh	StopGo reporter	SARS PLP yeast
C=CCC[C@H](Cc1ccc(F)cc1)C(=O)OC[C@@H](C)NC(=O)[C@@H](CC=C)CC(=O)N[C@H](CO)Cc1ccccc1	1%	?	-1%
O=C(COC(=O)CNC(=O)C1CCCCC1)NCc1ccc(Cl)cc1	9%	-3%	-10%
COc1ccccc1C(=O)NCCC(=O)N(C)Cc1cccnc1	-2%	-22%	2%
Cc1ccc(NC(=O)Nc2cc(S(=O)(=O)N(C)C)ccc2C)cc1	-3%	33%[activator]	0%
COC(=O)c1cn(C)c2ccc(S(=O)(=O)N3CCOCC3)cc2c1=O	9%	-3%	0%

The list goes on:
SMILES	RE007 growth inh	StopGo reporter	SARS PLP yeast
Cn1ccc(NC(=O)c2ccc(Cl)cc2Cl)n1	-6%	61%[activator]	-2%
CCC(CO)Oc1cc(NCc2ccccc2O)c2ncn(C(C)C)c2c1 (stereo not drawn)	2%	76%[activator]	-12%
O=C(CCC(=O)N1CCOCC1)NCc1cccc(C(F)(F)F)c1	1%	-17%	-1%
CC(C)c1ccc(C(=O)NNC(=O)c2n[nH]c(=O)c3ccccc23)cc1	10%	-1%	3%
Cc1cccc(NS(=O)(=O)c2cccc(C(=O)N3CCN(C/C=C/c4ccccc4)CC3)c2)c1	-22%	?	3%
COCCS(=O)(=O)N(Cc1ccccc1)[C@H](C(=O)OC)C(C)C	-7%	-23%	-7%
CC[C@@H]1C=C(C(=O)O)[C@H](c2ccc(Cl)cc2)N1S(=O)(=O)c1ccc(C)cc1	-20%	-11%	1%
O=C(Nc1cccc(Cl)c1)c1nc[nH]c1C(=O)NCCCNC(=O)c1[nH]cnc1C(=O)Nc1cccc(Cl)c1	11%	?	4%
OC(COCCC12CC3CC(CC(C3)C1)C2)CN1CCCC1 (stereo not drawn)	2%	?	-2%
CCOC(=O)N1CCC(NCCNC(=O)c2ccc(F)c(F)c2)CC1	-4%	-18%	2%

A run of entries taken from the entries so far:
SMILES	RE007 growth inh	StopGo reporter	SARS PLP yeast
Cn1ccc(NC(=O)c2ccc(Cl)cc2Cl)n1	-6%	61%[activator]	-2%
CCC(CO)Oc1cc(NCc2ccccc2O)c2ncn(C(C)C)c2c1 (stereo not drawn)	2%	76%[activator]	-12%
O=C(CCC(=O)N1CCOCC1)NCc1cccc(C(F)(F)F)c1	1%	-17%	-1%
CC(C)c1ccc(C(=O)NNC(=O)c2n[nH]c(=O)c3ccccc23)cc1	10%	-1%	3%

Later entries:
SMILES	RE007 growth inh	StopGo reporter	SARS PLP yeast
CC(=O)N1CCc2cc(S(=O)(=O)NC(Cc3ccccc3)C(=O)NCCN3CCCCC3C)ccc21 (stereo not drawn)	-13%	-1%	-2%
O=C(CN(Cc1ccco1)Cc1cccs1)N1CCN(S(=O)(=O)c2cccc(F)c2)CC1	-12%	-11%	10%
COc1ccc(C(=O)N2CCN(c3ccccc3Cl)CC2)cc1S(=O)(=O)NC1CC1	3%	37%[activator]	2%
CC1(C)CC(=O)C=C(c2ccc(Oc3ccccc3)cc2)C1	0%	0%	3%
O=C(C[C@H]1C[C@H](C(=O)N2CCCCC2)[C@@]2(CCc3ccccc3)c3[nH]c4ccc(Cl)cc4c3CCN2C1=O)NCCCn1ccnc1	6%	?	-2%
O=C(CCNC(=O)c1ccc([N+](=O)[O-])cc1)Nc1cccc(S(=O)(=O)N2CCOCC2)c1	1%	16%	0%
O=C(COC(=O)c1cccnc1Cl)c1ccc(Cl)s1	-1%	10%	-4%
O=C(CNS(=O)(=O)c1ccc(Cl)c(C(F)(F)F)c1)NC1CCCCCC1	-11%	5%	-1%
COc1ccc(NS(=O)(=O)c2cc(NC(=O)c3ccccc3)ccc2N2CCOCC2)cc1	-1%	72%[activator]	1%
O=C(NNC1CC(=O)N(c2ccc(Cl)cc2)C1=O)c1ccccn1 (stereo not drawn)	10%	-4%	-1%
O=C(O)c1ccc(OS(=O)(=O)c2ccc(Cl)s2)c(Cl)c1	0%	6%	?
Cc1ccc(NC(=O)COc2ccc3c(c2)OCO3)c(Cl)c1	-7%	69%[activator]	-5%
CCOC(=O)C1=C(C2=CCCCC2)c2ccc(OC)cc2N(S(=O)(=O)C(F)(F)F)C1C(=O)OCC (stereo not drawn)	-14%	-9%	-4%
C[C@H](CO)N1C[C@H](C)[C@@H](CN(C)S(C)(=O)=O)Oc2c(NC(=O)Nc3ccc4c(c3)OCO4)cccc2C1=O	1%	19%	0%
Cc1nn(-c2ccccc2)c(Cl)c1/C=C1\C(=O)N(C)C(=S)N1C	13%	?	-2%
O=C(CSc1n[nH]c(=O)[nH]c1=O)Nc1ccc(Br)cc1Br	2%	-19%	-1%
CC1CCN(C(=O)c2[nH]cnc2C(=O)N[C@@H](C)c2ccccc2)CC1	7%	6%	-2%
O=C(NCCOc1ccccc1Cl)C(=O)NCCOc1ccccc1Cl	-1%	-17%	0%
O=C(OCc1cc(=O)n2ccsc2n1)C1(c2ccc(Cl)cc2)CC1	-1%	-28%	0%
COc1cc(C(=O)OCC(C)=O)cc(NC(=O)c2ccco2)c1OC	8%	-30%	-3%
CCN1C[C@@H]2[C@@H]3C(=O)N(C)C(=O)[C@@H]3[C@](C)(C(=O)OC)N2C1=NC	1%	-1%	19%
COc1ccc2c(c1)c1c(n2C)[C@@H]2CC=C(CO)[C@@H](C1)N2C	-12%	-20%	3%
CCN(CC)C(=O)[C@H]1C[C@H](CC(=O)NCCCN(C)C)C(=O)N2CCc3c([nH]c4ccc(Cl)cc34)[C@]12C	-7%	-5%	-19%
COc1ccccc1NC(=O)CCC(=O)OCc1ccc(Cl)cc1	-3%	9%	-1%
O=C(CCc1ccccc1)NC1(Cc2ccccc2)CCN(CCCc2ccccc2)C1=O (stereo not drawn)	31%	-11%	1%
O=C(CSc1nnc2c(n1)[nH]c1ccccc12)NCc1ccco1	11%	-7%	-1%
CCCOc1ccc(C2=CC(=O)C[C@H](c3ccc(OC)cc3)C2)cc1	2%	30%	3%
COCCCNC(=O)C[C@H]1C[C@H](C(=O)N2CCOCC2)[C@@]2(C)c3[nH]c4ccc(Cl)cc4c3CCN2C1=O	-24%	-19%	12%
O=C(O)c1cc(S(=O)(=O)Nc2ccc3cn[nH]c3c2)ccc1Br	-14%	-13%	8%
CCCNC(=O)C(Cc1cccc(C#N)c1)NC(=O)c1ccc(C#N)cc1 (stereo not drawn)	-11%	-10%	2%
Cc1cc(NC(=O)COC(=O)c2ccccc2[N+](=O)[O-])no1	-6%	42%[activator]	2%
COc1ccc(CC(=O)OCC(=O)c2c[nH]c3ccccc23)cc1	-3%	-13%	-3%
CC1(C)NC(=O)N(CC(=O)N2CCN(S(=O)(=O)c3cc(Cl)ccc3Cl)CC2)C1=O	?	-4%	2%
O=C(Oc1cccc([N+](=O)[O-])c1)c1ccc2c(=O)n3c(nc2c1)CCC3	-10%	-9%	0%
S=C(NCc1ccccc1)NN1CCOCC1	1%	-13%	-1%
COC(=O)[C@@H](Cc1ccccc1)N(Cc1ccccc1)S(=O)(=O)N(Cc1ccccc1)[C@H](Cc1ccccc1)C(=O)OC	-8%	?	-2%
CC(C)(C)CN1CCNC[C@H]1Cc1cccc2ccccc12	-13%	-14%	-2%
Cc1c(Cl)cnc(NC(=O)CSc2nnnn2C)c1Cl	1%	14%	-5%
CCOC(=O)c1cc(-c2ccccc2)nn1CC1CC(c2ccc(OC)cc2)=NO1 (stereo not drawn)	0%	-10%	1%
Cc1cc(NC(=O)CSc2nnc(-c3ccccc3F)n2C)no1	7%	-5%	-22%

Full records from above. Screens in order: RE007 growth inh | StopGo reporter | SARS PLP yeast
Shown for `CC1(C)NC(=O)N(CC(=O)N2CCN(S(=O)(=O)c3cc(Cl)ccc3Cl)CC2)C1=O` = ? | -4% | 2%
Shown for `O=C(Oc1cccc([N+](=O)[O-])c1)c1ccc2c(=O)n3c(nc2c1)CCC3` = -10% | -9% | 0%
Shown for `Cc1cc(NC(=O)COC(=O)c2ccccc2[N+](=O)[O-])no1` = -6% | 42%[activator] | 2%
Shown for `CC(C)(C)CN1CCNC[C@H]1Cc1cccc2ccccc12` = -13% | -14% | -2%

Other results follow.
SMILES	RE007 growth inh	StopGo reporter	SARS PLP yeast
Cc1c(Cl)cnc(NC(=O)COC(=O)[C@@H](NC(=O)c2ccco2)C(C)C)c1Cl	-5%	-6%	-2%
Cc1c(-c2nc3ccccc3[nH]2)cnn1C	5%	34%[activator]	1%
C=CC[C@@H](CC(=O)N[C@@H](CO)Cc1ccccc1)C(=O)N[C@H](COC(=O)[C@H](CC=C)CC(=O)OC(C)(C)C)Cc1c[nH]c2ccccc12	-5%	?	-2%
O=C1c2ccccc2C(=O)N1CCC#Cc1ccc2cc(C3(O)CCCCC3)oc(=O)c2c1	1%	40µM*	-5%
CCN(C[C@H]1N[C@@](CC)(C(=O)OC)[C@H]2C(=O)N(C)C(=O)[C@@H]12)C(=O)C1CCCCC1	8%	1%	-1%
CCOc1c2ccccc2nn1CCO	6%	-1%	-25%
O=c1c2ccccc2oc2cc(-c3ccc(CN4CCOCC4)cc3)ccc12	-13%	0%	-4%
COc1ccc(-n2c(COc3ccc4c(c3)OCO4)nnc2SCC(=O)O)cc1	7%	-2%	-1%
C=CC[C@H](CC(=O)NCCO)C(=O)N[C@@H](COC(=O)[C@@H](CC=C)Cc1ccc(F)cc1)Cc1ccccc1	-14%	-16%	3%
O=C(c1ccc2c(c1)N(Cc1cccc(Cl)c1)C(=O)c1ccccc1S2(=O)=O)N1CCN(c2ccccn2)CC1	13%	-6%	2%
CN(CC(=O)Nc1c(Cl)cccc1Cl)C(=O)CC1OC(=O)c2ccccc21 (stereo not drawn)	4%	-25%	-1%
C[C@H](CO)N1C[C@H](C)[C@@H](CN(C)S(C)(=O)=O)Oc2ccc(NC(=O)CCN3CCOCC3)cc2C1=O	2%	-9%	-1%
COc1ccc(C(=O)OCC(=O)c2cc(C)n(CC3CCCO3)c2C)cc1[N+](=O)[O-] (stereo not drawn)	-5%	-25%	5%
CCCSc1ccc([C@@H]2[C@@H]3C(=O)N(CC)C(=O)[C@@H]3[C@]3(C(=O)OC)CCCCN23)cc1	-4%	?	2%
CCc1cccc(C)c1NC(=O)C1CC(=O)N(C2CCCC2)C1 (stereo not drawn)	-6%	-17%	-4%
